Bead autofluor: compound fluorescence in toxin protease inhibitor counterscreen; compound autofluorescence counterscreen, microsphere flow cytometry; active compounds read high; fluorescence intensity (concentration not given with the values); actives 3.1% (n = 360,000); AID 624483;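 active means at least 3 SD above the mean of all compounds, about 16000 in these data; inconclusive means too few beads counted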;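 further: 100 nL of 1 mM stock went into each well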
Sa ugtP lethal: growth inhibition of S. aureus ugtP deletion strain; growth inhibition, % (test concentration not listed); AID 1259309; actives 0.54% (n = 330,000); S. aureus RN4220 ugtP deletion, OD600 growth, 16 h; some inactives read as strong as hits;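 active means z-score under -3 and OD600 up to 0.15 on both plates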;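 further: plate controls were untreated wells for no effect and antibiotic for full effect; wells of about 80 µL received 100 nL stock; the first replicate is given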
Mtb hypoxia inh: Mtb hypoxia fluorescent reporter inhibition; actives 0.1% (n = 300,000); fluorescence inhibition, % (test concentration not listed); M. tuberculosis hypoxia-regulated fluorescent reporter, fluorescence; AID 1159583;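 active means 35 to 45% if threefold the growth effect, above 45% if 1.5-fold the growth effect; inactive means the rest, general growth blockers included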;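 further: wells of about 50 µL received 100 nL stock; 0% = vehicle wells and 100% = reference inhibitor wells; whole bacteria with a GFP reporter of the hypoxia response; strong numbers were not always called active; many hits fall short of the cut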
PrP 5UTR inh: inhibition of PrP 5' UTR reporter expression; inhibition, % (test concentration not listed); cell-based PrP 5' UTR mRNA reporter, plate reader; AID 488862; actives 0.35% (n = 340,000);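 active means every replicate at 50% or more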;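 further: 0 = median of the neutral control wells; tested in H4 reporter cells; numbers are from one replicate; inactives centre near -14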
BJeLR lethal: kills HRASV12-expressing BJeLR cells. BJeLR (HRASV12) viability, CellTiter-Glo ATP luminescence, 48 h; reference of the scale not given here. inhibition, % (test concentration not listed). actives 0.17% (n = 300,000);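 active means replicate mean above 50%; inconclusive means above 50% but judged a plate artefact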;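 further: 50 nL library stock added to about 25 µL; numbers are from one replicate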
RN4220 kill: kills Staphylococcus aureus RN4220 | S. aureus RN4220 growth, OD600, 16 h | inhibition, % (no concentration beside the values) | actives 0.33% (n = 330,000) | AID 1259311;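 active means z-score of -3 or lower and OD600 up to 0.18 on both plates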;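 further: plate controls were untreated cells for no effect and reference antibiotic for full effect; stock transfer was 100 nL into about 80 µL; one replicate is shown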
Mtb hypoxia inh growth: also measured in Mtb hypoxia inh; calls as there; growth inhibition, %; measured here: M. tuberculosis growth (absorbance);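 0% = vehicle and 100% = reference antibiotic; read after six days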
Starred values were filed as active, the others as inactive; & = joins results of further samples. Rows are unselected (roughly 4% active in at least one column).

For CC1=NNC(=O)C1CCC(=O)NN=Cc1ccc(Cl)cc1 (configuration not stated) the results were Sa ugtP lethal 3, Mtb hypoxia inh -13, RN4220 kill 0.5 and Mtb hypoxia inh growth -2.
`O=C(Nc1ccccc1)N(Cc1ccccc1)C1=NCCS1` gave Bead autofluor 2803, Sa ugtP lethal 8, PrP 5UTR inh -27, BJeLR lethal -2 and RN4220 kill 0.6.
CCOC(=O)c1ccccc1NC(=O)CSc1nnnn1C1CCCCC1 was read as Bead autofluor 8681, Sa ugtP lethal -10, Mtb hypoxia inh -2, PrP 5UTR inh -14, BJeLR lethal 4, RN4220 kill 0.0 and Mtb hypoxia inh growth -2.
For Cc1ccc(S(=O)(=O)C2(C(=O)N3CCN(C4CCCCC4)CC3)CC2)cc1 the results were Bead autofluor 9273, Sa ugtP lethal 0, Mtb hypoxia inh -1, PrP 5UTR inh -18, BJeLR lethal -2, RN4220 kill 2.9 and Mtb hypoxia inh growth 7.
CCN(c1ccccc1)S(=O)(=O)c1ccc(OC)c(NC(=O)CNCCc2ccccc2)c1 was read as Bead autofluor 4954, Sa ugtP lethal 9, Mtb hypoxia inh 6, PrP 5UTR inh 0, BJeLR lethal 8, RN4220 kill 6.1 and Mtb hypoxia inh growth -5.
Screening NC(=O)C1CCCNC1 (configuration not stated) returned Bead autofluor 5795, PrP 5UTR inh -24&1 and BJeLR lethal 7.
For Cc1ccc(NC(=O)CC(C)S(=O)(=O)c2ccc3c(c2)NC(=O)CO3)c(Cl)c1 (configuration not stated) the results were Bead autofluor 5967, Sa ugtP lethal 9, Mtb hypoxia inh 16, PrP 5UTR inh -5, BJeLR lethal 2, RN4220 kill 2.1 and Mtb hypoxia inh growth 4.
`CCOC(=O)COc1cc(N)c(Cl)cc1Cl` gave Bead autofluor 2109, Sa ugtP lethal -2, Mtb hypoxia inh 5, PrP 5UTR inh 4, BJeLR lethal 5, RN4220 kill 3.6 and Mtb hypoxia inh growth 2.
For CCOC(=O)C1CCCN(C(=O)C(CCSC)NC(=O)COc2ccccc2)C1 (configuration not stated) the results were Bead autofluor inconclusive, Sa ugtP lethal 5, Mtb hypoxia inh 3, PrP 5UTR inh -16, RN4220 kill 2.6 and Mtb hypoxia inh growth 6.
Screening COC(=O)C1=C(c2ccc(S(C)(=O)=O)cc2)C[C@@H]2CC[C@H]1N2C(=O)N1CCCC1 returned Bead autofluor 3755, PrP 5UTR inh -5 and BJeLR lethal -1.
For CCCn1nc2cc(C(=O)NCC34CC5CC(CC(C5)C3)C4)ccc2c1OCC the results were Bead autofluor 4104, Sa ugtP lethal 2, Mtb hypoxia inh 15, PrP 5UTR inh -12, BJeLR lethal 7, RN4220 kill -2.4 and Mtb hypoxia inh growth 5.
CCOC(=O)N1CCN(C(=O)CCC2CCCC2)CC1 was read as Bead autofluor 2478, Sa ugtP lethal 6, PrP 5UTR inh -15, BJeLR lethal -4 and RN4220 kill 3.6.
Screening COc1ccc(/C=C/c2nc3ccccc3c(=O)o2)cc1 returned Bead autofluor 5387, PrP 5UTR inh 22 and BJeLR lethal 0.
For C=CCn1cc(C(=O)NCCN(CC)CC)c(=O)c2cc(S(=O)(=O)N3CCCCCC3)ccc21 the results were Bead autofluor 4702, Sa ugtP lethal 3, Mtb hypoxia inh 7, PrP 5UTR inh 0, BJeLR lethal 8, RN4220 kill 3.3 and Mtb hypoxia inh growth 6.
`O=C(COC(=O)c1cnccn1)c1ccc(Cl)c([N+](=O)[O-])c1` gave Bead autofluor 5173, Sa ugtP lethal 4, Mtb hypoxia inh 13, PrP 5UTR inh -34, BJeLR lethal -1, RN4220 kill -0.5 and Mtb hypoxia inh growth 7.
`CN(C)C(=O)ON=C(N)COc1ccc(C(C)(C)C)cc1` gave Sa ugtP lethal 2, Mtb hypoxia inh 11, RN4220 kill 1.3 and Mtb hypoxia inh growth 5.
Screening CC(C)n1nc(C(=O)Nc2nnc(SCc3c(Cl)cccc3Cl)s2)c2ccccc2c1=O returned Bead autofluor 19535*, Sa ugtP lethal 41, Mtb hypoxia inh -8, PrP 5UTR inh 0, BJeLR lethal -20, RN4220 kill 1.2 and Mtb hypoxia inh growth 1.
Oc1ccc(NCc2ccccc2OCc2ccccc2)cc1 was read as Bead autofluor 1933, Sa ugtP lethal -16, Mtb hypoxia inh 1, PrP 5UTR inh -3, BJeLR lethal 10, RN4220 kill -3.0 and Mtb hypoxia inh growth 5.
Screening COc1ccc2cc(C3(C)NC(=O)N(CC(=O)N4CCCCC4)C3=O)ccc2c1 (configuration not stated) returned Bead autofluor 4706, Sa ugtP lethal 5, Mtb hypoxia inh 3, PrP 5UTR inh -30, RN4220 kill 3.3 and Mtb hypoxia inh growth 2.
`CCC(=O)N1C(C(=O)O)CSC1c1ccc(OC)cc1` (configuration not stated) gave Bead autofluor 6200, Sa ugtP lethal -6, PrP 5UTR inh -58, BJeLR lethal 3 and RN4220 kill 2.7.
COc1cc(C(=O)N2CC(C)OC(C)C2)c([N+](=O)[O-])cc1OC (configuration not stated) was read as Bead autofluor 18981*, Sa ugtP lethal 4, Mtb hypoxia inh 11, PrP 5UTR inh -6, BJeLR lethal 6, RN4220 kill 4.2 and Mtb hypoxia inh growth 6.
`CCCCNC(=S)NNC(=O)c1csc(CC)c1` gave Bead autofluor 3761, Sa ugtP lethal -6, Mtb hypoxia inh 18, PrP 5UTR inh -22, BJeLR lethal -11, RN4220 kill 4.8 and Mtb hypoxia inh growth 21.
`CC(=O)Nc1cccc(NC(=O)/C=C/c2ccc(S(=O)(=O)N3CCOCC3)cc2)c1` gave Bead autofluor 2867, Sa ugtP lethal 10, Mtb hypoxia inh 10, PrP 5UTR inh -11, RN4220 kill 4.2 and Mtb hypoxia inh growth 5.
For Clc1cccc(CSc2ncnc3c2ncn3C2CCCCO2)c1 (configuration not stated) the results were Bead autofluor 3475, Sa ugtP lethal 11, Mtb hypoxia inh 17, PrP 5UTR inh -36, RN4220 kill 1.4 and Mtb hypoxia inh growth 13.
Screening COc1ccc(-n2c(Cc3cccn3C)nnc2SCC(=O)Nc2nccs2)cc1 returned Bead autofluor 6081, Sa ugtP lethal 4, PrP 5UTR inh -17, BJeLR lethal -10 and RN4220 kill 5.0.
Screening C=CCNCc1cccn1-c1ccccc1 returned Bead autofluor 10824, Sa ugtP lethal 3, Mtb hypoxia inh 13, PrP 5UTR inh -25, BJeLR lethal 11, RN4220 kill 1.2 and Mtb hypoxia inh growth 6.
`O=S(=O)(c1ccccc1Br)N(Cc1ccccc1)CC(O)COCc1ccccc1` (configuration not stated) gave Bead autofluor 3452, Sa ugtP lethal -2, Mtb hypoxia inh 2, PrP 5UTR inh -2, RN4220 kill 5.9 and Mtb hypoxia inh growth 5.
Screening CCOc1ccc(NC(=O)CN2CC(c3ccccc3)CC2=O)cc1 (configuration not stated) returned Bead autofluor 5986, Sa ugtP lethal 8, PrP 5UTR inh -2, BJeLR lethal -5 and RN4220 kill 7.5.
Cc1ccc(N(Cc2cc3ccc(C)cc3[nH]c2=O)S(C)(=O)=O)c(C)c1 was read as Bead autofluor 4663, Sa ugtP lethal 4, Mtb hypoxia inh 3, PrP 5UTR inh -4, BJeLR lethal 1, RN4220 kill 3.9 and Mtb hypoxia inh growth 11.
c1c2c(cc3sc(N4CCOCC4)nc13)OCCO2 was read as Bead autofluor 3693, Sa ugtP lethal -3, Mtb hypoxia inh 15, PrP 5UTR inh 56*, BJeLR lethal 25, RN4220 kill 6.1 and Mtb hypoxia inh growth 10.
For O=C(CCCn1c(=S)[nH]c2ccc(Br)cc2c1=O)NCC1CCCO1 (configuration not stated) the results were Bead autofluor 5964, Sa ugtP lethal 6, Mtb hypoxia inh 4, PrP 5UTR inh -13, BJeLR lethal -4, RN4220 kill 6.7 and Mtb hypoxia inh growth 7.
CC(=O)C1=C(O)C(=O)N(CCCn2ccnc2)C1c1ccc(C)cc1 (configuration not stated) was read as Bead autofluor 11058, Sa ugtP lethal 4, Mtb hypoxia inh 8, PrP 5UTR inh -13, BJeLR lethal 8, RN4220 kill 5.8 and Mtb hypoxia inh growth 1.
Screening CCc1nnc(NC(=O)CN2CCN(Cc3ccc(C)cc3)CC2)s1 returned Bead autofluor 3008, Sa ugtP lethal 3, Mtb hypoxia inh 16, PrP 5UTR inh -2, BJeLR lethal 9, RN4220 kill 2.1 and Mtb hypoxia inh growth -2.
Screening Cc1ccc(Nc2cc(C)nc3ccccc23)c(C)c1 returned Bead autofluor 5976, Sa ugtP lethal -6, Mtb hypoxia inh -4, PrP 5UTR inh -13, BJeLR lethal 5, RN4220 kill 5.6 and Mtb hypoxia inh growth 13.
O=C(COC(=O)CNC(=O)c1ccc(Cl)cc1Cl)Nc1cccc(S(=O)(=O)N2CCCC2)c1 was read as Bead autofluor inconclusive, PrP 5UTR inh -11 and BJeLR lethal 2.
Screening O=C(NCC1CCCN(Cc2ccc3nonc3c2)C1)c1cccc(C(F)(F)F)c1 (configuration not stated) returned Bead autofluor 5132, Sa ugtP lethal 14, Mtb hypoxia inh -1, PrP 5UTR inh -37, BJeLR lethal -4, RN4220 kill 4.0 and Mtb hypoxia inh growth 2.
For CCC1CCCCN1C(=O)c1cccc(S(=O)(=O)Nc2cc(C(F)(F)F)ccc2Cl)c1 (configuration not stated) the results were Bead autofluor 2469, Sa ugtP lethal -9, Mtb hypoxia inh 6, PrP 5UTR inh -2, BJeLR lethal -1, RN4220 kill 20 and Mtb hypoxia inh growth 6.
For CC1(c2ccc(OC(F)F)cc2)NC(=O)N(CC(=O)NCCC2=CCCCC2)C1=O (configuration not stated) the results were Sa ugtP lethal 5, Mtb hypoxia inh -2, PrP 5UTR inh -15, RN4220 kill 8.9 and Mtb hypoxia inh growth -1.
For Cc1ccc(S(=O)(=O)N(C)CCCC(=O)Nc2ccccn2)cc1 the results were Bead autofluor 4995, Sa ugtP lethal 1, Mtb hypoxia inh 19, PrP 5UTR inh -8, BJeLR lethal 13, RN4220 kill 4.1 and Mtb hypoxia inh growth 9.
`COc1cc(NC(=S)NC(=O)c2ccccc2C)ccc1NC(=O)c1cccs1` gave Bead autofluor 4530, Sa ugtP lethal -8, Mtb hypoxia inh 7, PrP 5UTR inh -5, BJeLR lethal 1, RN4220 kill 1.7 and Mtb hypoxia inh growth 3.
CCOC(=O)c1ccc(NC(=S)N(Cc2cccnc2)Cc2ccco2)cc1 was read as Bead autofluor 4270, Sa ugtP lethal -6, Mtb hypoxia inh 6, PrP 5UTR inh -5, BJeLR lethal 8, RN4220 kill -5.3 and Mtb hypoxia inh growth 4.
Screening Cn1cc(S(=O)(=O)N2CCN(c3ccccc3)CC2)c(=O)n(C)c1=O returned Bead autofluor 6390, Sa ugtP lethal -4, Mtb hypoxia inh 5, PrP 5UTR inh -31, BJeLR lethal -4, RN4220 kill -14 and Mtb hypoxia inh growth 8.

An excerpt from above in order of heavy-atom count, highest first:
For CC1(c2ccc(OC(F)F)cc2)NC(=O)N(CC(=O)NCCC2=CCCCC2)C1=O (configuration not stated) the results were Sa ugtP lethal 5, Mtb hypoxia inh -2, PrP 5UTR inh -15, RN4220 kill 8.9 and Mtb hypoxia inh growth -1.
`COc1cc(NC(=S)NC(=O)c2ccccc2C)ccc1NC(=O)c1cccs1` gave Bead autofluor 4530, Sa ugtP lethal -8, Mtb hypoxia inh 7, PrP 5UTR inh -5, BJeLR lethal 1, RN4220 kill 1.7 and Mtb hypoxia inh growth 3.
CCOC(=O)c1ccc(NC(=S)N(Cc2cccnc2)Cc2ccco2)cc1 was read as Bead autofluor 4270, Sa ugtP lethal -6, Mtb hypoxia inh 6, PrP 5UTR inh -5, BJeLR lethal 8, RN4220 kill -5.3 and Mtb hypoxia inh growth 4.
Screening Cn1cc(S(=O)(=O)N2CCN(c3ccccc3)CC2)c(=O)n(C)c1=O returned Bead autofluor 6390, Sa ugtP lethal -4, Mtb hypoxia inh 5, PrP 5UTR inh -31, BJeLR lethal -4, RN4220 kill -14 and Mtb hypoxia inh growth 8.
For Cc1ccc(S(=O)(=O)N(C)CCCC(=O)Nc2ccccn2)cc1 the results were Bead autofluor 4995, Sa ugtP lethal 1, Mtb hypoxia inh 19, PrP 5UTR inh -8, BJeLR lethal 13, RN4220 kill 4.1 and Mtb hypoxia inh growth 9.
Screening Cc1ccc(Nc2cc(C)nc3ccccc23)c(C)c1 returned Bead autofluor 5976, Sa ugtP lethal -6, Mtb hypoxia inh -4, PrP 5UTR inh -13, BJeLR lethal 5, RN4220 kill 5.6 and Mtb hypoxia inh growth 13.
